Mtb bLac sens = beta-lactam sensitization of Mtb H37Rv, H37Rv; M. tuberculosis H37Rv growth with meropenem, percent inhibition; hits of this screen are not shown here; inhibition, % at 25 µM; 330,000 compounds, 0.27% hits; AID 434955, 2010;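 active = about 74% or more and at least 40 points above the plate without the antibiotic, then above 30% in a dose series; inconclusive = first-round hits that could not be retested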;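 also: growth measured after seven days incubation then overnight dye step; 0% = bacteria only wells and 100% = bacteria with antibiotic; twin plates without the antibiotic show which effects depend on it; some results filed as inactive read as strong as hits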
* hit, by the source's call; u = inconclusive. These rows are one share of the data (hit frequency here may not be typical).

Preview, 6 compounds:
SMILES	Mtb bLac sens
Cc1cccc(NC(=O)c2ccc(S(=O)(=O)NCc3ccco3)cc2)n1	2
CC(C(=O)Nc1ccc(Br)cc1)N(C)CC(=O)NCc1ccco1 (stereo not drawn)	2
O=C(CCNC(=O)c1ccc(Cl)cc1)NCc1ccco1	-3
Cc1ccc([N+](=O)[O-])cc1NC(=O)C(C)Sc1nnc(C)n1CC1CCCO1 (stereo not drawn)	6
CC1(C)C[C@H]2C3=CCC4[C@@]5(C)CC[C@H](O)[C@](C)(CO)C5CC[C@@]4(C)[C@]3(C)C[C@H]3O[C@@H]1[C@H](O)[C@]32CO (stereo partly drawn)	-5
CCN(Cc1cccs1)C(=O)CN1C(=O)NC(c2ccccc2)(c2ccccc2)C1=O	-6

Main list, from the first entry:
SMILES	Mtb bLac sens
Cc1cccc(NC(=O)c2ccc(S(=O)(=O)NCc3ccco3)cc2)n1	2
CC(C(=O)Nc1ccc(Br)cc1)N(C)CC(=O)NCc1ccco1 (stereo not drawn)	2
O=C(CCNC(=O)c1ccc(Cl)cc1)NCc1ccco1	-3
Cc1ccc([N+](=O)[O-])cc1NC(=O)C(C)Sc1nnc(C)n1CC1CCCO1 (stereo not drawn)	6
CC1(C)C[C@H]2C3=CCC4[C@@]5(C)CC[C@H](O)[C@](C)(CO)C5CC[C@@]4(C)[C@]3(C)C[C@H]3O[C@@H]1[C@H](O)[C@]32CO (stereo partly drawn)	-5
CCN(Cc1cccs1)C(=O)CN1C(=O)NC(c2ccccc2)(c2ccccc2)C1=O	-6
CC[C@@]1(C(=O)OC)N[C@H](CN(C)C(=O)COc2ccccc2)[C@@H]2C(=O)N(Cc3ccccc3)C(=O)[C@@H]21	-5
COc1ccc(NC(=O)CN(C)C(=O)c2cn(-c3ccccc3)nc2-c2ccc(F)cc2)cc1	8
CCc1nc(CNC(=O)C2CCC(=O)N(CCc3ccc(OC)cc3)C2)cs1 (stereo not drawn)	u
C=C[C@@H]1c2cc(C)ccc2N(S(=O)(=O)c2ccc(C)cc2)[C@H](c2ccc(OC(C)=O)cc2)C1(C#N)C#N	1
O=C(Nc1ccccn1)c1ccc(Cl)c(S(=O)(=O)N2CCc3ccccc32)c1	13
CSCCC(NC(=O)c1ccccc1)C(=O)N1CC(C)OC(C)C1 (stereo not drawn)	-7
COC(=O)C1=CN(Cc2ccccc2)C=C(C(=O)OC)C1c1ccc(OC)c(OC)c1	-2
Cc1ccc(-c2cc(C(=O)N3CCOCC3)c3ccccc3n2)o1	-5
O=C(COC(=O)c1cc(Cl)ccc1O)Nc1ccccc1C(=O)NC1CC1	-7
COc1ccc(CC(=O)Nc2cc(S(=O)(=O)N3CCCC3)ccc2Cl)c(OC)c1	-2
COc1ccc(-c2ccc3c(c2)S(=O)(=O)c2cccc(C(=O)NCCOc4ccccc4Cl)c2C3=O)cc1OC	16
CS(=O)(=O)N1CCC(NC(=O)Nc2ccc(OC(F)(F)F)cc2)CC1	0
O=C(CSc1ccc2c(c1)OCCO2)N1CCN(c2ccccc2)CC1	4
N#Cc1cccc(C(=O)Nc2ccc(S(=O)(=O)Nc3nccs3)cc2)c1	-11

Part of the list above in order of SMILES length, falling.
SMILES	Mtb bLac sens
CC[C@@]1(C(=O)OC)N[C@H](CN(C)C(=O)COc2ccccc2)[C@@H]2C(=O)N(Cc3ccccc3)C(=O)[C@@H]21	-5
N#Cc1cccc(C(=O)Nc2ccc(S(=O)(=O)Nc3nccs3)cc2)c1	-11
O=C(COC(=O)c1cc(Cl)ccc1O)Nc1ccccc1C(=O)NC1CC1	-7

Following part.
SMILES	Mtb bLac sens
COc1cc(C(O)C(=O)O)ccc1O (stereo not drawn)	-1
COc1ccccc1NS(=O)(=O)c1ccc(C(=O)NCCCn2ccnc2)cc1	-12
Cc1cc(C(=O)Nc2cccc(S(=O)(=O)N3CCOCC3)c2)c2ccccc2n1	-7
O=C(Cn1cnc2c(OCc3ccccc3)ncnc21)NCCCn1ccnc1	-5
C=CC[C@@H](CC(=O)N[C@H](CO)Cc1ccccc1)C(=O)NCCOC(=O)[C@@H](CC=C)CC(=O)OC(C)(C)C	-6
CSc1ccccc1NC(=O)CN(C)C(=O)COc1ncnc2ccccc12	-4
Cc1ccc(-c2nc(SCC(=O)c3c(N)n(C4CC4)c(=O)[nH]c3=O)n[nH]2)cc1	7
Cc1ccc2cccc(OCCCOc3ccccc3F)c2n1	3
O=C(COC(=O)C12CC3CC(CC(Cl)(C3)C1)C2)Nc1ccc2[nH]c(=O)[nH]c2c1	-4
CC(C)CC1(C)NC(=O)N(CC(=O)Nc2ccc(F)c(F)c2F)C1=O (stereo not drawn)	-7
COc1cc(OC)cc(C(=O)OC(C)C(=O)NC2CCCc3ccccc32)c1 (stereo not drawn)	-11
CC(C)Oc1ccc(CCNC(=O)C2CCC(=O)N(Cc3cccc(F)c3)C2)cc1 (stereo not drawn)	-5
C#CCOCCOCCOCCNc1nc(N2CCOCC2)nc(N2CCN(C(=O)CCCCCCCCCCNC(=O)[C@H](CO)n3cc(CCCSC)nn3)CC2)n1	99
CCN(Cc1nc2cc(Cl)ccc2c(=O)[nH]1)C(=O)c1cccc(OCc2c(C)noc2C)c1	33
CC(=O)c1ccc(S(=O)(=O)NCCCC(=O)N(C)Cc2ccc3c(c2)OCO3)cc1	2
COc1ccc(NS(=O)(=O)c2cc(NC(=O)[C@H](C)NC(N)=O)ccc2N2CCCC2)cc1	-2
Cc1cc(NC(=O)COC(=O)c2ccc(OC(F)(F)F)cc2)no1	1
Cc1ccc(C(=O)O)cc1NC(=O)CSc1nnc(-c2ccccc2F)n1C1CCCCC1	-4
COc1ccc(NC(=O)C2CC(c3ccc(Cl)cc3)=NO2)cc1 (stereo not drawn)	-13
CCN(C[C@H]1N[C@@](C)(C(=O)OC)[C@H]2C(=O)N(Cc3ccccc3)C(=O)[C@@H]12)S(=O)(=O)c1ccccc1	1

For reference, part of the list above.
SMILES	Mtb bLac sens
COc1ccc(NC(=O)C2CC(c3ccc(Cl)cc3)=NO2)cc1 (stereo not drawn)	-13
CCN(C[C@H]1N[C@@](C)(C(=O)OC)[C@H]2C(=O)N(Cc3ccccc3)C(=O)[C@@H]12)S(=O)(=O)c1ccccc1	1

Remaining list, next part
SMILES	Mtb bLac sens
COC(=O)CCCCC(=O)OC	-5
Nc1nnc(SCC(=O)NNC(=O)c2ccc([N+](=O)[O-])cc2)s1	-4
CC(=O)OCCCN(C)CC/C=C1/c2ccccc2CSc2ccccc21	-2
COCCn1c(SCC(=O)NC(=O)NC2CCCC2)nc2ccccc2c1=O	-7
COc1ccc2c(C)cc(SCC(=O)NC3CCCC3)nc2c1	72
Cc1cccc(C(=O)OCC(=O)Nc2c(C)n(C)n(-c3ccccc3)c2=O)c1	-3
O=C(COC(=O)Cc1c(F)cccc1Cl)NNC(=O)c1ccccc1	-5
CC1(C)CC2CC(C)(CN2C(=O)c2cc(-c3ccc(F)cc3)on2)C1 (stereo not drawn)	1
CCCCc1cc(=O)oc2c(C)c(OCC(=O)NCC3CCC(C(=O)O)CC3)ccc12 (stereo not drawn)	-5
CN(Cc1cccc(F)c1)C(=O)C1CC(=O)N(c2ccc3c(c2)OCCO3)C1 (stereo not drawn)	-7
O=C(CSC1=Nc2ccccc2C2CC=NN12)NCc1ccco1 (stereo not drawn)	28
COC(=O)[C@H](Cc1ccccc1)NC(=O)Cn1cnc2c(OCc3ccccc3)ncnc21	-6
COc1ccccc1CNC(=O)CN1C(=O)NC(Cc2ccccc2)(c2ccccc2)C1=O (stereo not drawn)	10
Cc1ccnc2nc(C(=O)OCC(=O)c3ccccc3)nn12	-1
COc1cccc(OC)c1C(=O)OCC(=O)N1CCC(Cc2ccccc2)CC1	-3
CCOC(=O)CN1C(=O)N(CC(=O)OCC)C(c2ccccc2)(c2ccccc2)C1=O	-18
Cc1nn(CC(=O)OCC(=O)NCCc2ccc(S(N)(=O)=O)cc2)c(C)c1[N+](=O)[O-]	-4
O=C(O)c1ccccc1NS(=O)(=O)c1ccc(NN=Cc2ccccc2F)c([N+](=O)[O-])c1	-3
COC(=O)C1=C(c2c(C)noc2C)C[C@@H]2CC[C@H]1N2C(=O)NCCOc1ccc(OC)cc1	-8
COc1ccccc1-c1sc2cc3c(cc2c1C#CC1(O)CCCCC1)OCO3	72
CC(=O)c1ccc(OC(C)C(=O)NC2CCCCC2C)cc1 (stereo not drawn)	-9
CCC1CCCCN1CC(=O)Nc1ccc2c(c1)OCCO2 (stereo not drawn)	6
COc1ccc(C(=O)NC(=S)NNC(=O)c2ccco2)cc1	74
CC(NC(=O)COC(=O)c1ccc2ccccc2n1)c1ccccc1 (stereo not drawn)	7
Cc1ccc(NC(=O)CN2C(=O)NC3(CCCc4ccccc43)C2=O)c(Cl)c1 (stereo not drawn)	-5
COc1ccc(C)cc1S(=O)(=O)NC(C)C(=O)Nc1ccc2c(c1)OCO2 (stereo not drawn)	-8
Cn1c(N)c(C(=O)CSc2nnc3n2CCCCC3)c(=O)n(C)c1=O	-1
NC(=O)C1CCN(C(=O)c2ccc(F)c(S(=O)(=O)N3CCOCC3)c2)CC1	-2
O=C(COC(=O)/C=C/c1ccco1)NCc1ccc(Cl)cc1	-4
COc1ccc([N+](=O)[O-])cc1NC(=O)C(C)NNC(=O)c1cccc([N+](=O)[O-])c1 (stereo not drawn)	4
COc1ncnc(NS(=O)(=O)c2ccc(N)cc2)c1OC	4
O=C(O)/C(=C\c1ccc(Cl)cc1)c1ccc(S(=O)(=O)N2CCCC2)s1	2
Cc1ccc(S(=O)(=O)N(C)CC(=O)NCC(c2ccco2)N(C)C)cc1 (stereo not drawn)	-6
COC1C(C)=C(C)C(=O)N1Cc1ccc(F)cc1 (stereo not drawn)	-4
CNC1(C)[C@H]2CC[C@H](C2)C1(C)C (stereo partly drawn)	-2
COc1ccccc1C(=O)COC(=O)Cc1ccccc1F	7
O=C(c1cccc(S(=O)(=O)N2CCCC2)c1)N1CCOCC1	-3
COc1ccc(C(=O)NCCOc2cccc(Oc3ccccc3)c2)cc1OC	2
COC(=O)[C@]1(C)N[C@H](CN(C)C(=O)C2CCCCC2)[C@@H]2C(=O)N(C)C(=O)[C@@H]21	-1
CCOC(=O)c1c(C)[nH]c(C(=O)N(C)CC(=O)Nc2ccc(OC)cc2)c1C	2

Some values from above.
For Mtb bLac sens, CC(=O)c1ccc(OC(C)C(=O)NC2CCCCC2C)cc1 (stereo not drawn) shows -9
For Mtb bLac sens, Cc1ccc(NC(=O)CN2C(=O)NC3(CCCc4ccccc43)C2=O)c(Cl)c1 (stereo not drawn) shows -5
For Mtb bLac sens, COc1ccc(C(=O)NCCOc2cccc(Oc3ccccc3)c2)cc1OC shows 2
For Mtb bLac sens, CNC1(C)[C@H]2CC[C@H](C2)C1(C)C (stereo partly drawn) shows -2

Next part:
SMILES	Mtb bLac sens
CN(C(=O)c1ccc(NC(=O)Cc2ccc(NC(=O)C3CCCN(C(=O)C4CCCC4)C3)cc2)cc1)C1CC1 (stereo not drawn)	3
C[C@H](CO)N1C[C@H](C)[C@@H](CN(C)Cc2ccc(-c3ccccc3)cc2)Oc2c(NS(=O)(=O)c3ccccc3)cccc2C1=O	-2
Cc1cc(C)c(CN2CCC(n3nccc3NC(=O)C3CCOC3)CC2)cc1C (stereo not drawn)	-5
CC1CC1C(=O)OCC(=O)Nc1cc(S(=O)(=O)N2CCCCC2)ccc1Cl (stereo not drawn)	-1
O=C(COC(=O)c1ccc2c(c1)OCO2)Nc1cccc(F)c1	0
O=C(CN1C(=O)NC(Cc2c[nH]c3ccccc23)C1=O)Nc1ccccc1C(F)(F)F (stereo not drawn)	0
O=S(=O)(Nc1cc(S(=O)(=O)N2CCOCC2)ccc1NCC1CCCO1)c1ccccc1F (stereo not drawn)	2
CN(C(=O)CSc1nnc(-c2ccc(C(C)(C)C)cc2)n1C)C1CCS(=O)(=O)C1 (stereo not drawn)	-3
Cc1ccc(NC(=O)CSc2ccccc2)cc1S(=O)(=O)N1CCCCC1	-8
CCC(C)c1ccccc1NC(=O)COC(=O)C1=NN(c2ccccc2)C(=O)CC1 (stereo not drawn)	2
COC(=O)C1=C(c2ccc(OCc3ccccc3)cc2)C[C@@H]2CC[C@H]1N2C(=O)NCc1cccc(C(F)(F)F)c1	-4
CC(C)(C)OC(=O)C[C@@H]1C/C=C\C[C@H](CC(=O)NCCO)C(=O)NC[C@@H](c2ccccc2)OC1=O	4
O=C(CSc1nnc(Nc2ccccc2F)s1)NC(=O)CN1CCCC1=O	-9
C[C@H](NC(=O)c1nc[nH]c1C(=O)OCc1ccccc1)c1ccccc1	11
c1ccc2c(c1)Cc1ccccc1O2	-3
CC1(c2cccc(Br)c2)NC(=O)N(CC(=O)N2CCc3ccccc32)C1=O (stereo not drawn)	-1
O=C(OCC(=O)N1CCCCC1)c1c[nH]c2ccccc12	-4
CCOC(=O)[C@H]1[C@H]2COc3ccc(OC)cc3[C@@H]2N2C(=O)CN(Cc3ccco3)C(=O)[C@@]12C	10
Cc1cc(C(=O)OCC(=O)Nc2cccc(F)c2)c(C)n1C1CC1	10
COc1cc(OC)cc(C(=O)NC2CC3CCC(C2)N3C)c1 (stereo not drawn)	-3
Cc1ccc(C(=O)CCC(=O)NC2=NCCS2)cc1	-1
COc1ccc(C(=O)COC(=O)c2cncc(Br)c2)cc1	28
O=C(OCC(=O)N1CCOCC1)c1cnc(Cl)c(Cl)c1	2
CCOC(=O)C1CCN(C(=O)c2ccc(N3CCOCC3)c([N+](=O)[O-])c2)CC1	-6
COC(=O)[C@]1(Cc2ccccc2)N[C@H](CN(C)C(=O)Nc2ccccc2)[C@@H]2C(=O)N(C)C(=O)[C@@H]21	-3
CCC(CC)c1nnc(NC(=O)c2cc([N+](=O)[O-])ccc2N2CCOCC2)s1	-6
O=C(COC(=O)CC1CCCC1)Nc1ccc(Br)cc1F	-7
Cc1ccc(NC(=O)c2ccc(OCc3c(C)noc3C)cc2)nc1	-4
Cc1ccc(S(=O)(=O)NCCC(=O)NCC(c2cccs2)N(C)C)cc1C (stereo not drawn)	4
CS(=O)(=O)NCc1ccccc1Br	12
CCN(CC)CCO	-2
COC(=O)c1cc(Br)ccc1NC(=O)CSCc1c(C)noc1C	7
CCOC(=O)c1ccc(NC(=O)C2CC(=O)N(c3ccc4c(c3)OCCO4)C2)cc1 (stereo not drawn)	-4
